# Assay outcomes as filed in PubChem BioAssay.
# PrP 5UTR inh: inhibition of PrP 5' UTR reporter expression; cell-based PrP 5' UTR mRNA reporter, plate reader; inhibition, % (no concentration beside the values); 340,000 compounds, 0.35% hits; AID 488862, 2010;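 active = every replicate at 50% or more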;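 also: 0 = median of the neutral control wells; tested in H4 reporter cells; numbers are from one replicate; inactives centre near -14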
# Sa RN4220 lethal: growth inhibition of S. aureus RN4220, primary screen, OD600. 16 h. inhibition, % (no concentration beside the values). 330,000 compounds, 0.33% hits;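 active = z-score of -3 or lower and OD600 up to 0.18 on both plates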;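 also: plate controls were untreated cells for no effect and reference antibiotic for full effect; stock transfer was 100 nL into about 80 µL; one replicate is shown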
# Autofluor counter: compound fluorescence in toxin protease inhibitor counterscreen | 360,000 compounds, 3.1% hits | fluorescence intensity (concentration not given with the values) | AID 624483 | compound autofluorescence counterscreen, microsphere flow cytometry; hits give high values;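 active = at least 3 SD above the mean of all compounds, about 16000 in these data; inconclusive = too few beads counted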;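 also: 100 nL of 1 mM stock went into each well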
# BJeLR viability: MLPCN primary cell-based screen for lethality selective to Ras in HRASV12 cells; inhibition, % (no concentration beside the values); 300,000 compounds, 0.17% hits; BJeLR (HRASV12) viability, CellTiter-Glo ATP luminescence, 48 h; reference of the scale not given here;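 active = replicate mean above 50%; inconclusive = above 50% but judged a plate artefact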;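 also: 50 nL library stock added to about 25 µL; numbers are from one replicate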
# Mtb hypoxia rep: PubChem AID 1159583; 300,000 compounds, 0.1% hits; fluorescence inhibition, % (no concentration beside the values); M. tuberculosis hypoxia-regulated fluorescent reporter, fluorescence;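 active = 35 to 45% if threefold the growth effect, above 45% if 1.5-fold the growth effect; inactive = the rest, general growth blockers included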;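 also: wells of about 50 µL received 100 nL stock; 0% = vehicle wells and 100% = reference inhibitor wells; whole bacteria with a GFP reporter of the hypoxia response; strong numbers were not always called active; many hits fall short of the cut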
# ugtP null kill: growth inhibition of ugtP-null S. aureus, primary screen, RN4220 ugtP deletion, OD600 | 16 h; some inactives read as strong as hits | growth inhibition, % (no concentration beside the values) | 330,000 compounds, 0.54% hits | AID 1259309, 2017;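 active = z-score under -3 and OD600 up to 0.15 on both plates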;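 also: plate controls were untreated wells for no effect and antibiotic for full effect; wells of about 80 µL received 100 nL stock; the first replicate is given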
# Mtb hypoxia rep growth: further read-out of Mtb hypoxia rep, marked with its call; growth inhibition, %; measured here: M. tuberculosis growth (absorbance);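 0% = vehicle and 100% = reference antibiotic; read after six days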
# * marks the source's active call; other numbers are inactive results; ? = inconclusive; · = no result given.
SMILES,PrP 5UTR inh,Sa RN4220 lethal,Autofluor counter,BJeLR viability,Mtb hypoxia rep,Mtb hypoxia rep growth,ugtP null kill
O=C(CSC(=S)N1CCCC1)NCC(=O)Nc1ccc(F)c(F)c1,4.3,12.9,?,-5.5,10.1,-1.0,12.2
COc1ccc(C2=NCc3nnc(C)n3-c3ccc(Cl)cc32)cc1Cl,-8.4,-1.0,4129,3.2,·,·,-6.4
O=C(Nc1ccccc1)Nc1ccc(Br)c(Cl)c1,-27.6,68.8,9272,0.9,5.6,1.2,71.9
O=C(NNc1c(F)c(F)cc(F)c1F)c1cc2ccccc2oc1=O,-35.5,6.0,4422,15.3,14.3,3.7,4.0
Cc1oc(-c2cccc(Cl)c2)nc1CS(=O)(=O)CC(=O)NCCCN1CCOCC1,-36.9,-8.7,5242,-6.3,13.6,8.9,-6.4
COc1ccc(CCNC(=O)COC(=O)c2cccn2C)cc1,-19.9,3.7,4294,·,7.2,15.4,9.9
CN(Cc1ccccc1)C(=O)c1nc2ccccn2c1CNCCCOc1cccnc1,-31.0,0.5,4562,6.8,4.6,4.0,-2.7
CCC(=O)c1cn(CC(=O)Nc2cc(C)ccc2C)c2ccccc12,-9.8,1.8,3111,-7.7,1.6,-2.0,0.3
CCOC(=O)N1CCN(S(=O)(=O)c2ccc(C(=O)Nc3nnc(C)o3)cc2)CC1,2.6,5.5,6575,11.5,6.6,4.7,3.3
CCc1nc2sccc2c(=O)[nH]1,5.7,2.5,4069,8.0,4.0,12.5,8.2
CS(=O)(=O)N1CCSC1c1ccc(Br)cc1 (centres undefined),-13.5,2.2,3305,-7.0,4.6,15.9,8.3
O=C(NCc1ccco1)c1cc2ccccc2o1,-39.0,9.6,3067,9.3,·,·,3.2
CCOc1ccc(NC(=S)NCc2ccco2)cc1,-48.1,5.9,4539,-5.4,9.9,17.3,2.5
O=C(CCCCCNC(=O)c1ccccc1Br)N=Nc1c(O)[nH]c2ccccc12,-27.9,2.8,3447,0.7,3.2,1.2,-1.0
CC(C)Oc1ccc(C(=O)O)cc1,-29.3,·,2922,7.6,·,·,·

# Full records, quoted from the list. Values in the order: PrP 5UTR inh | Sa RN4220 lethal | Autofluor counter | BJeLR viability | Mtb hypoxia rep | Mtb hypoxia rep growth | ugtP null kill
# CCOc1ccc(NC(=S)NCc2ccco2)cc1 in the list: -48.1 | 5.9 | 4539 | -5.4 | 9.9 | 17.3 | 2.5
# CCc1nc2sccc2c(=O)[nH]1 in the list: 5.7 | 2.5 | 4069 | 8.0 | 4.0 | 12.5 | 8.2
# O=C(NCc1ccco1)c1cc2ccccc2o1 in the list: -39.0 | 9.6 | 3067 | 9.3 | · | · | 3.2

# Two entries from above, with two lines to a compound.
# Screens in order: PrP 5UTR inh | Sa RN4220 lethal | Autofluor counter | BJeLR viability | Mtb hypoxia rep | Mtb hypoxia rep growth | ugtP null kill
> CCOC(=O)N1CCN(S(=O)(=O)c2ccc(C(=O)Nc3nnc(C)o3)cc2)CC1
→ 2.6 | 5.5 | 6575 | 11.5 | 6.6 | 4.7 | 3.3
> CCc1nc2sccc2c(=O)[nH]1
→ 5.7 | 2.5 | 4069 | 8.0 | 4.0 | 12.5 | 8.2

# Next section.
SMILES,PrP 5UTR inh,Sa RN4220 lethal,Autofluor counter,BJeLR viability,Mtb hypoxia rep,Mtb hypoxia rep growth,ugtP null kill
CC(C)(C)c1nc(NCc2ccc3c(c2)OCO3)c2nnn(Cc3ccccc3Cl)c2n1,-9.3,-1.3,4634,·,·,·,-8.5
CN1CCN(c2ccc(NC(=S)NC(=O)c3cccc4c(Cl)cccc34)cc2)CC1,-9.1,-3.7,5621,10.0,-10.8,-8.8,97.8*
CC(=O)c1cnc2nc(C(F)(F)F)nn2c1C,-4.7,-2.0,2708,-9.5,·,·,1.4
COCCNC(=O)CN1C(=O)CSc2ncccc21,-18.0,1.1,5238,1.5,·,·,7.8
COc1ccc(NC(=O)CCCSc2ccccc2)cc1S(N)(=O)=O,-15.3,2.1,3477,-0.7,-8.3,11.6,3.8
COc1ccc(OCC(=O)N2CCN(C3CCC(c4ccccc4)CC3)CC2)cc1 (centres undefined),-18.4,3.3,2135,4.5,-6.9,-0.9,-4.7
COC(=O)C(CCSC)NC(=O)CNS(=O)(=O)c1ccc(Cl)cc1 (centres undefined),-18.0,6.3,8338,-30.0,12.0,9.2,8.1
Nn1c(SCc2cn3ccccc3n2)nnc1-c1ccncc1,18.3,1.3,3240,5.5,-1.4,-5.9,5.1
Cc1cc(C)c2ccc(C=NO)nc2c1O,·,2.2,·,·,5.3,-2.6,7.2
CC(=NCCN1CCOCC1)c1c(O)n(C2CCCCC2)c(=O)[nH]c1=O,7.7,2.0,24874*,8.0,2.1,17.4,0.4
CCOP(=O)(OCC)C(Nc1ccccc1)c1cccnc1 (centres undefined),-38.3,0.9,5682,-9.6,-8.4,-10.7,-2.1
COc1ccc(C2c3c(ccc4ccccc34)Oc3ncn4nc(-c5ccco5)nc4c32)cc1 (centres undefined),-10.7,10.7,10359,-1.1,-3.0,2.9,3.8
O=C(CSc1nnnn1-c1ccc(F)cc1)Nc1nc2ccccc2s1,5.7,0.4,4196,2.8,3.7,6.1,-6.5
CCn1c(C)nnc1SCC(=O)Nc1ccc(N2CCOCC2)cc1,-0.5,4.4,5600,14.0,6.4,5.4,0.3
O=C(NCCc1ccccc1C(F)(F)F)C1CCC(=O)N(C2CC2)C1 (centres undefined),0.3,2.2,5725,1.0,0.1,-0.5,5.0
CCc1ccc(C(=O)CN2C(=O)C(C)N(c3ccc(C)cc3)C2=O)cc1 (centres undefined),-39.5,0.5,2666,-4.6,12.5,11.9,1.9
CCOC(=O)c1c(CC(C)C)csc1NC(=O)c1ccccc1C(=O)O,-11.5,1.7,4967,-10.7,1.3,5.7,22.6
Cc1onc(-c2ccccc2)c1C(=O)Oc1cccnc1,-22.4,0.4,21663*,1.7,-1.4,10.2,-6.0
CC(=O)c1ccc(Cc2ccc(C(C)=O)cc2)cc1,-16.3,3.2,2544,3.2,0.2,10.9,8.8
CCC(OC(=O)CN1C(=O)C(=O)c2ccccc21)C(=O)Nc1ccccc1OC (centres undefined),-22.3,-7.7,3076,-7.4,1.6,-1.8,10.5
CCCCOC(=O)C(C)Nc1n[nH]c(=S)[nH]c1=O (centres undefined),·,1.6,·,-4.4,0.9,16.2,-2.1
Cc1ccc(SCC(=O)NC2CC3CCC(C2)N3C)cc1 (centres undefined),-18.3,3.2,4162,-11.5,2.7,5.0,6.2
O=C(COc1ccccc1O)NC1CCCC1,-16.8,0.6,7862,·,-4.3,2.4,1.9
Cc1ccc(C)c(N=C2NC(=O)CS2)c1,-10.0,-10.9,3432,-5.5,-1.4,-5.1,-1.7
CN1CCN(c2ccccc2NC(=O)c2ccc([N+](=O)[O-])o2)CC1,-26.9,8.7,?,6.2,-6.1,8.4,27.7
COc1ccc(C(=O)C2CCCN(S(=O)(=O)c3cccnc3)C2)c(C)c1 (centres undefined),-2.8,6.0,3322,9.2,15.2,8.1,10.1
Cc1ccc(NC(=O)COC(=O)Cc2ccsc2)cc1S(=O)(=O)N(C)C,-1.5,0.1,4757,15.5,-4.4,-2.2,-8.5
Cc1ccc(S(=O)(=O)NCC(=O)N(CC(=O)NCC2CCCO2)c2cccc(F)c2)cc1 (centres undefined),-7.0,-1.4,5423,1.7,11.5,7.1,6.9
O=C1Nc2ccccc2C(O)(C(=O)N2CCCCC2)N1c1ccccc1 (centres undefined),-4.4,3.5,3668,-5.4,·,·,4.5
Cc1ccc(CN2CCN(/N=C\c3cccc([N+](=O)[O-])c3)CC2)cc1,-33.1,·,2558,4.4,·,·,·
O=C(CCc1ccc(S(=O)(=O)N2CCOCC2)cc1)Nc1ccc(F)c(F)c1F,-2.2,3.8,5977,·,2.7,3.9,7.2
Cc1ccc(/C=N/Nc2cc(C)nc(N3CCOCC3)n2)cc1,-17.1,·,4438,3.9,·,·,·
Cc1ccnc(NC(=O)Cn2ccc([N+](=O)[O-])n2)c1,-54.4,0.3,2545,0.4,12.9,7.0,7.3
CCN(CC(=O)Nc1ccc(NC(C)=O)cc1)C(=O)C1CC(=O)N(CCc2ccc(OC)c(OC)c2)C1 (centres undefined),-20.6,6.4,6572,0.9,-1.4,1.0,3.9
Cc1ccccc1N1CCN(Cc2ccc([N+](=O)[O-])o2)CC1,-48.9,4.4,3164,-2.9,·,·,3.7
C=CCC(=O)NC1CC(C)(C)Cc2c1cnn2-c1ccc(C)cc1 (centres undefined),-17.9,5.7,3411,-9.8,2.3,3.0,13.5
Nn1cnnc1NN=Cc1cc([N+](=O)[O-])c(Cl)cc1Cl,·,-7.5,·,·,-0.1,9.9,-7.5
Cc1sc2ncnc(NCCN3CCOCC3)c2c1C,-12.8,4.1,9190,3.1,-7.0,3.6,4.1
Cc1ccc(-c2cc(C(=O)N3CCCC3)c3ccccc3n2)s1,-11.8,2.4,5416,0.3,5.7,8.8,-0.8
O=C1C=C(NCc2ccccc2)C2(CCCCC2)O1,-23.5,4.0,22250*,-2.7,7.6,10.9,-0.3
Cc1ccc(C)c(OC(=O)CN2C(=O)c3ccccc3C2=O)c1,-7.7,-4.4,3653,-14.4,-3.7,8.0,-4.5
O=C(NC(=S)N1CCOCC1)c1ccc([N+](=O)[O-])cc1,-7.7,·,2233,-17.3,·,·,·
CNCCNCC(Cc1cccc2ccccc12)NCCc1ccccc1 (centres undefined),·,0.2,·,·,7.3,8.2,2.8
COc1ccc(/C=C/S(=O)(=O)NCc2ccccc2)cc1OC,-0.4,·,3700,7.6,·,·,·
O=C(NCc1ccccc1Cl)c1cc(C(=O)C2CC2)c[nH]1,-6.1,0.6,5105,0.2,-4.6,2.9,1.3
O=C(NCC1CCCO1)C1CCCN(S(=O)(=O)c2cccc3nsnc23)C1 (centres undefined),-20.1,5.2,2478,8.0,8.7,10.1,2.6
CS(=O)(=O)N1CCCC(C(=O)Nc2ccc3c(c2)OCCO3)C1 (centres undefined),-13.3,6.1,4955,-7.3,-0.7,0.4,7.0
CC(C)(C)c1cc(CCC(=O)N2CCNCC2)c(C(C)(C)C)cc1O,-15.0,7.3,9460,-16.2,8.1,14.4,-12.4
c1ccc(NC2=NCCN2CCC2CCCCC2)cc1,-18.9,2.6,3384,-1.9,15.7,9.0,-2.0
CC(/C=N/NC(=O)c1ccncc1)=C\c1ccc(C(C)C)cc1,-69.8,·,22320*,0.7,·,·,·
COc1cccc(CNS(=O)(=O)c2cc(CN3C(=O)c4cccnc4C3=O)ccc2OC)c1,-6.6,0.0,4400,-7.1,5.5,0.9,1.6
O=C(NCCCN1CCOCC1)c1cc(-c2ccc(F)cc2)nc2ccccc12,5.3,2.4,?,·,6.9,13.7,1.0
Cc1cc(C)n2nc(C(=O)NCc3ccco3)nc2n1,-19.3,0.6,4810,-8.6,·,·,-6.0
Cc1cccc(N2CCN(C(=O)c3nn(C)c4c3CS(=O)(=O)c3ccccc3-4)CC2)c1C,-23.6,5.1,5599,0.2,-10.2,-18.5,4.6
O=C(c1ccc(F)cc1)c1ccc(OCC(=O)N2CCOCC2)cc1,-26.5,4.2,?,·,-5.2,-0.7,3.9
COC(=O)c1ccc(CSc2ccc3nnc(-c4ccc(OC)c(OC)c4)n3n2)o1,-11.4,3.7,4685,-9.1,10.8,6.9,-0.4
CCCn1nnnc1NCc1cccc(OC)c1,-23.0,1.7,3398,-1.9,6.9,3.7,7.5
O=C(NCc1ccccc1)C(c1cccnc1)N(C(=O)c1ccccn1)c1ccc(F)cc1 (centres undefined),-12.9,5.5,3974,-8.3,0.3,-2.3,18.0
Cc1c(C)n(CCO)c2ncnc(Nc3ccc(F)cc3)c12,-39.1,2.9,3539,-3.0,5.5,2.7,2.4
Cc1cc(C)c(NC(=O)CNC(=O)COC(=O)/C=C/c2cccs2)c(C)c1,-8.6,-4.2,·,3.8,-9.7,-7.4,-7.2
# Next section:
SMILES,PrP 5UTR inh,Sa RN4220 lethal,Autofluor counter,BJeLR viability,Mtb hypoxia rep,Mtb hypoxia rep growth,ugtP null kill
CCN(CC)c1ccc(C(=O)NN=Cc2ccc(N3CCOCC3)cc2)cc1,·,5.7,·,·,1.0,3.8,-1.4
CC(Sc1nnc(C2CCCCC2)n1N)C(=O)NCc1ccc2c(c1)OCO2 (centres undefined),-7.5,4.7,2480,-9.3,·,·,-0.3
O=C(O)c1ccc(NNC(=S)Nc2cc(C(F)(F)F)ccc2Cl)cc1,-16.7,8.5,3699,0.8,2.4,9.1,12.6
CCCN1C(=O)C(=NOCC(=O)Nc2ccc(C(C)C)cc2)c2ccccc21,·,-1.3,·,·,5.7,7.1,-0.1
